Screens (PubChem)
GLA inh pH 4.5: alpha-galactosidase A (human) inhibition, pH 4.5; 230,000 tested, under 10 active; purified enzyme, 4-MU-alpha-Gal fluorescence, pH 4.5; P06280; AID 1467; activity change, negative = inhibition, % at 105 µM; inconclusive = small, poorly fitted or top-dose-only inhibition, or a rising curve; inactive = flat fitted curve, though single readings scatter; no compound was filed as active;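 note: 0% = full activity with enzyme and -100% = basal without enzyme; dose as in the result columns while the protocol names 77 µM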
miR-21 FLuc: miR-21 reporter, rising signal; AID 2288; Potency, µM (series often up to 38.3 µM), for the others: top-dose reporter change, positive = more light; 340,000 tested, under 10 active; HeLa miR-21 FLuc reporter, luciferase, 48 h; active = well fitted rising curve with a large enough effect; inconclusive = small, poorly fitted or top-dose-only effect; inactive = no such curve, though single readings can be large or run the other way;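 note: % of control where 0% means no effect; miR-21 action dims this reporter so a rising signal means less miR-21 action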
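Luminescence from a firefly luciferase reporter carrying a miR-21 binding site downstream, stably expressed under a CMV promoter in HeLa cells that make miR-21 endogenously, reports miRNA modulation after 48 h compound exposure up to approximately 40uM final.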
Rango release inh: inhibition of RanGTP-driven Rango-importin beta dissociation; O95149+P62826; Biochemical FRET Rango-importin beta, RanGTP-induced dissociation; Potency, µM (doses to about 46.1 µM), for inactives: at the highest dose activity change, negative = inhibition; hit rate 0.071% among 340,000; active means falling FRET ratio curve, often poorly fitted, with flat reads before Ran was added; inconclusive means other falling curves, or compound fluorescence or quenching; inactive means flat or rising ratio curve;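 note: potency is the fitted concentration of half-maximal effect; % of control where 0% means no effect; nearly all actives have a fitted effect of over 45% in size; -100% = wells without RanGTP and RCC1; the record marks most hits as doubtful in a second field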
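Two FRET readings bracket the reaction: one 5 min after compound meets Rango–importin beta, another 45 min after RanGTP-RCC1 (0.6 uM Ran, 0.2 uM RCC1, 2 mM GTP) is added. Only the second defines inhibition.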
Rango complex inh: Rango-importin beta binding inhibition; AID 540263; Potency, µM (highest dose often 92.2 µM), without a hit: at the highest dose inhibition of complex formation; hit rate 0.031% among 340,000; Rango CFP/YFP FRET sensor + importin beta, 45 min; active = rising FRET ratio curve, often small or poorly fitted; inconclusive = mostly compound fluorescence or quenching in the first reads; inactive = flat curves in all reads;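 note: potency is the fitted concentration of half-maximal effect; 0% = DMSO wells and 100% = buffer wells lacking importin beta; nearly all actives have a fitted effect of over 15% in size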
Target sequence (Q14974 whole entry, looked up): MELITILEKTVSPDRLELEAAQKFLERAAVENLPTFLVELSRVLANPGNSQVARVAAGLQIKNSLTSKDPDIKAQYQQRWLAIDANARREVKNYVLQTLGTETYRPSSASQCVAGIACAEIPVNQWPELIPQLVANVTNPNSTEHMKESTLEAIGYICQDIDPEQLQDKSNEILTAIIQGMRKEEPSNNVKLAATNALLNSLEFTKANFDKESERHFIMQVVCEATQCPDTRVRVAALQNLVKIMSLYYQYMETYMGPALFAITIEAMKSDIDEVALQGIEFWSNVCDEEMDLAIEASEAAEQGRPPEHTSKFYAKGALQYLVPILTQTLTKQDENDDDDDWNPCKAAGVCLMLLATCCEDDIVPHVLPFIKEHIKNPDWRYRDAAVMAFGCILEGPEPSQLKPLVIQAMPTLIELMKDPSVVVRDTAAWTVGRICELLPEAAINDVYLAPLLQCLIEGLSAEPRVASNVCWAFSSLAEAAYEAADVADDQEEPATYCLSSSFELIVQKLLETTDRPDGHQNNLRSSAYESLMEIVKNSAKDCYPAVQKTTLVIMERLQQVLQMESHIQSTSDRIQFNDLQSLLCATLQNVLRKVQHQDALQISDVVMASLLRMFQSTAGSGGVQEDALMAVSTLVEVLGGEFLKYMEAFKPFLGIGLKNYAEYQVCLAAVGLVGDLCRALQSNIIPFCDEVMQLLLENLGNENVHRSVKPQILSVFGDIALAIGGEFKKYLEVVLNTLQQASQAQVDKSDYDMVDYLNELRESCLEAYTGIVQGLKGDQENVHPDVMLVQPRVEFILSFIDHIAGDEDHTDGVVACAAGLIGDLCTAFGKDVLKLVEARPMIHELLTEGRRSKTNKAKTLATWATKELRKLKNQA
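FRET biosensor Rango (snurportin 1 IBB between N-terminal EYFP and C-terminal Cerulean), 50 nM in PBS/1 mM DTT/0.02% Tween-20/0.1% BSA, preincubated 5 min RT with compound; 0.125 microM importin beta added, 45 min RT, CFP/YFP FRET ratio read.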
* hit, by the source's call; ? = inconclusive; · = no result given; & = joins results of further samples; [ ] = remark or other dose. Only part of the results is shown (hit frequency here may not be typical).

Below each compound: miR-21 FLuc, Rango release inh, Rango complex inh, GLA inh pH 4.5
COc1cccc(C(=O)OC(C)CN2CCCC2)c1 (stereo unspecified)
 : 0%, 22%, -0.9%, -8
CCOC(=O)c1cc(-c2ccc(OC)cc2)nc2c1c(C)nn2CCC#N
 : -1%, -2%, ?, 5
CC1=CC(C)[C@H](/C=N/n2c(=O)[nH]c3c([nH]c4ccc(C)cc43)c2=O)C(C)C1 (stereo partly specified)
 : -9%, 6%, 0.8%, 28
CCOc1cc(C(=O)Nc2cc(F)ccc2C)ccc1OCC(=O)N1CCOCC1
 : ·, 17%, 3.2%, ·
O=C(NCC(F)(F)F)N1CCOCC1
 : -4%, ?, -4.3%, 0
c1ccn(-c2ccc(-c3ccn[nH]3)cc2)c1
 : -74%, -15%, 1.0%, -3
O=C(Nc1ccc2c(c1)OCCO2)c1c(F)c(F)c(F)c(F)c1F
 : -17%, -2%, -3.7%, 10
Cc1ccc(C(=O)CCNc2ccc(Cl)cc2)o1
 : -21%, 35%, -2.5%, 2
Cc1c(C(=O)O)c(C(=O)O)c2n1CCS2
 : -9%, -1%, -3.3%, 0
O=S(=O)(c1ccc(Br)c2ccccc12)N1CCCC1
 : -7%, 1%, -2.9%, ·
Cc1ccc(C(=O)N/C(=C/c2cccs2)C(=O)N2CCCCC2)cc1
 : 2%, 16%, 2.9%, 3
C/C(=N\NC(=O)OC(C)(C)C)c1ccc[nH]1
 : -43%, -6%, -1.3%, 9
CS(=O)(=O)Nc1ccc(OCc2ccccc2)cc1
 : -53%, 2%, 3.5%, -2
Cc1c(NC(=O)Cn2nc(C(=O)O)c3ccccc3c2=O)c(=O)n(-c2ccccc2)n1C
 : 1%, 3%, -0.6%, 5
COc1ccc(OCC(=O)OCC(=O)N2CC(=O)Nc3ccccc32)cc1
 : 0%, 5%, 0.1%, 1
COCCCNC(=O)c1cc2c(=O)n3cccc(C)c3nc2s1
 : -2%&-20%, ?, -4.5%, ·
Cc1onc(NC(=O)NC(=O)c2c(Cl)cccc2Cl)c1Br
 : -5%, 3%, -0.6%, ·
CC1(c2ccc(Cl)cc2)NC(=O)N(CC(=O)Nc2ccc(N3CCCCC3)cc2)C1=O (stereo unspecified)
 : ·, 11%, 4.0%, ·
COc1cccc(-n2c(=S)sc3c(=O)n(-c4ccccc4OC)c(SCC4OCCO4)nc32)c1
 : 4%, 0%, -2.2%, -10
O=C(CC1C(=O)NCCN1C/C=C/c1ccccc1)NCCCC1CCCC1 (stereo unspecified)
 : -42%, -3%, 0.2%, -3
Cc1nnc(-c2ccc(N3CCCCCC3)c([N+](=O)[O-])c2)o1
 : -49%, -1%, -1.3%, 3
CSC1=C(C#N)C(CC(C)C)C(C(C)=O)=C(C)N1 (stereo unspecified)
 : -7%, 4%, -0.3%, 1
Cc1cccc(N2CCN(C(=O)COc3ccc4c(c3)CCC4)CC2)c1C
 : -10%, -1%, -6.1%, -4
Cn1c(N)c(C(=O)CSc2nc3ccccc3n2-c2ccccc2)c(=O)n(C)c1=O
 : -1%, 23%, 0.8%, 4
CC(C)(C)NC(=O)NC(=O)COC(=O)c1nc(-c2ccccc2)n(-c2cccc(C(F)(F)F)c2)n1
 : -5%, -1%, -1.2%, 4
COc1cccc(OCc2nnc(SCc3cc(=O)[nH]c4ccccc34)o2)c1
 : -12%, 15%, -2.0%, 3
COc1ccccc1NC(=O)COC(=O)C12CC3CC(CC(Cl)(C3)C1)C2
 : -1%, -30%, 1.4%, -3
CCOc1ccc(N2C(=O)C3ON(c4ccccc4)C(c4ccco4)C3C2=O)cc1 (stereo unspecified)
 : -2%, -4%, 3.6%, 3[21.1 µM]
CCC1CO/C(=C(\C(=C(Cl)Cl)N2CCOCC2)[N+](=O)[O-])N1 (stereo unspecified)
 : -4%, -2%, 3.2%, 6
CCCn1c(SC(C)C(=O)O)nc2ccccc21 (stereo unspecified)
 : -4%, ?, ?, 7
CC(Oc1ccccc1)C(=O)Nc1cccc([N+](=O)[O-])c1 (stereo unspecified)
 : -2%, 18%, -0.6%, 11
CCOC(=O)c1c(C)oc2ccc(NS(=O)(=O)c3ccc(C(=O)O)cc3)cc12
 : -2%, 1%, 0.0%, 5
O=C(COc1ccccc1F)Nc1ccccc1C(=O)NC1CC1
 : ·, 2%, -0.2%, ·
CCOC(=O)c1c(-c2ccc(OC)c(OC)c2)csc1NC(=O)C1CCCO1 (stereo unspecified)
 : 17%, -4%, -2.1%, -10
O=C(NCCCN1CCOCC1)c1cc(-c2ccccc2F)no1
 : -38%, -14%, ?, ·
CC(C)c1nnc(NC(=O)CCC(=O)NCC2CCCO2)s1 (stereo unspecified)
 : 0%, 0%, 5.4%, 0
O=C(Cn1c(=O)c2cccn2c2cccnc21)NCCCN1CCN(c2ccc(F)cc2)CC1
 : -2%, -19%, ?, ·
CC(=O)OCC(=O)C1(O)CCC2C3CCC4=CC(=O)CCC4(C)C3C(O)CC21C (stereo unspecified)
 : ·, -5%, -4.0%, ·
COc1ccc(Cc2c(N)nc(N)nc2N)cc1
 : -20%, 1%, 0.2%, -19
O=C(NC1CCCCC1)NC1CC2CCC(C1)N2Cc1nnnn1Cc1ccc2c(c1)OCO2 (stereo unspecified)
 : -4%, 3%, -0.7%, 4
O=C(Nc1ccon1)c1cccc(Cl)c1
 : -3%, -9%, -4.0%, 0
Cc1sc(NC(=O)CSc2nnnn2C2CCCC2)c(C#N)c1C
 : 1%, -1%, -2.2%, -1
CC(c1nnc(SCn2nnc3ccccc3c2=O)n1-c1ccc(Cl)cc1)N(C)C (stereo unspecified)
 : -5%, 3%, -1.7%, 5
COc1ccc([C@@H]2CC=C(C(=O)O)[C@H](c3cccc(Cl)c3)N2S(=O)(=O)c2ccc(C)cc2)cc1OC
 : ·, 12%, -1.3%, ·
COC(=O)N[C@H](CC(C)=O)c1cccc(C(F)(F)F)c1
 : -2%, -1%, 1.0%, 4
COc1ccc(C)cc1S(=O)(=O)N1CCC2(CC1)OCCN2S(=O)(=O)c1cccs1
 : ·, 4%, 4.3%, ·
O=C(c1ccccc1)c1cnc(-c2ccc(Cl)cc2)s1
 : -60%, 8%, -1.2%, 7
COc1ccc(NC(=O)c2cnn(-c3ccccc3)c2C)cc1OC
 : -36%, -8%, 1.7%, ·
N#CCN1C(=O)NC2(CCCc3sccc32)C1=O (stereo unspecified)
 : -7%, -5%, -0.3%, ·
CN(c1ccc(C(=O)NCCc2ccccc2)cc1)S(C)(=O)=O
 : -20%, -6%, 7.2%, 1
O=C(NC1CCCCC1)[C@H](CSCc1ccccc1)N1Cc2ccccc2C1=O
 : -1%, 43%, -0.3%, 9
CC(C)(C)c1nnc(NC(=O)CS(=O)(=O)Cc2ccccc2)s1
 : -4%, -8%, 0.9%, 3
Cc1onc(-c2ccccc2)c1C(=O)Nc1nc(-c2cc(F)ccc2F)cs1
 : -33%, 16%, -0.4%, 9
O=C(Nc1ncc2c(n1)CC(c1ccc(Cl)cc1)CC2=O)c1ccco1 (stereo unspecified)
 : -2%, 8%, 1.1%, ·
CC1=NC(C)(C)Cc2ccccc21
 : -2%, -17%, 0.7%, -7
CC1CCCN(c2nc3ccccc3nc2C(C#N)S(=O)(=O)c2ccccc2)C1 (stereo unspecified)
 : -11%, ?, ?, -13
CC(C)OC(=O)CN1CCN(C2c3ccccc3-c3ccccc32)CC1
 : -1%, 0%, 0.5%, 1
O=C1C(c2ccc(F)cc2)N(Cc2ccc3c(c2)OCO3)C(=O)CN1C1CCCCCC1 (stereo unspecified)
 : -6%, 8%, -0.4%, -5
C/C(=N\NC(=O)c1cccs1)C(C)(C)C
 : -67%, 3%, 4.6%, 2
CC(=O)Nc1ccc(S(=O)(=O)NCC(=O)NC(C)c2ccc(S(N)(=O)=O)cc2)cc1 (stereo unspecified)
 : 0%, 14%, -0.5%, 0

New compounds follow
Below each compound: miR-21 FLuc, Rango release inh, Rango complex inh, GLA inh pH 4.5
O=S(=O)(c1cccc2cccnc12)N1CCN(c2ccccc2)CC1
 : -2%, -7%, 1.5%, -9
O=C(NCC1CCCO1)Nc1ccc2c(c1)OCO2 (stereo unspecified)
 : -39%, 1%, -1.6%, -1
CCOc1ccccc1C(=O)OCC(=O)NCCNC(=O)COC(=O)c1ccccc1OCC
 : 0%, -6%, -0.3%, ·
O=C1CCCN1C(=O)CSc1nnnn1-c1ccccc1
 : ·, -2%, 0.8%, ·
O=[N+]([O-])c1ccccc1OCCOc1ccccc1[N+](=O)[O-]
 : -37%, 0%, 0.6%, 1
NC(N)=NC(=S)Nc1ccc(Cl)cc1
 : -36%, 6%, -0.6%, 0
COc1ccc(CCNC(=O)Cc2ccc(C)cc2)cc1OC
 : -9%, -3%, 0.7%, ·
Cc1cc(C)c2oc(C(=O)NC3CCS(=O)(=O)C3)cc(=O)c2c1 (stereo unspecified)
 : -2%, -7%, -1.0%, ·
CCn1cc(C(=O)NCCc2ccc(C)cc2)c(=O)c2cc(S(=O)(=O)N(C)C)ccc21
 : 1%&-6%, 10%, 1.0%, ·
Cn1cccc1Cc1nnc(SCC(=O)N2CCCc3ccccc32)n1-c1ccc(F)cc1
 : -2%, 14%, -3.2%, 4
O=C(Oc1ccc(C(=S)N2CCCCC2)cc1)c1ccccc1F
 : 0%, -2%, 0.0%, -2
Cc1c(C(=O)Nc2ccccc2)sc2nc3n(c(=O)c12)CCCCC3
 : -32%, 1%, 0.4%, -3
COC(=O)c1c(C)cc(O)c(C)c1O
 : ·, 6%, 0.2%, ·
COc1cc(C(c2c(C)[nH][nH]c2=O)c2c(C)[nH][nH]c2=O)ccc1OC(=O)c1cccc([N+](=O)[O-])c1
 : 1%, -4%, 2.0%, -2
O=C(NCCCNC(=O)c1ccco1)c1ccc(F)cc1
 : -4%, 16%, -0.1%, ·
CCc1ccc(S(=O)(=O)N2CCN(C(=O)C3CCN(C(C)=O)CC3)CC2)cc1
 : 0%, -7%, -0.2%, ·
O=C(OCCOc1cccc(Cl)c1)c1ccc2ncsc2c1
 : 7%, 12%, 0.5%, ·
Cn1c(SCC(=O)c2ccccc2)nnc1-c1cccs1
 : -47%, 3%, 1.3%, -3
CCCCOc1ccc(N=Nc2ccc(N)nc2N)cn1
 : -33%, -17%, 0.4%, -16
CN(C)C(=O)CCc1ccc2c3c([nH]c2c1)[C@]1(C)[C@@H](C(=O)N2CCOCC2)C[C@H](CC(=O)NC(C)(C)C)C(=O)N1CC3
 : ·, 8%, 2.6%, ·
CC(NC(=O)Cn1cccc1C(=O)c1ccccc1)c1ccc2c(c1)OCCO2 (stereo unspecified)
 : 8%, 28%, 4.3%, -6
COC(=O)CCC(=O)NC(=S)Nc1cc(Cl)ccc1Cl
 : 1%, 8%, -2.9%, 3
Cc1nnsc1-c1onc(C)c1C(=O)O/N=C/c1ccc(Cl)cc1
 : -2%, 7%, 1.3%, 2
Cc1ccc2c(Cn3ccnc3)cc(=O)oc2c1C
 : -15%, 5%, 2.3%, ·
O=C(Cc1ccccc1)Nc1ccc(NC(=O)c2cccs2)cc1
 : -17%, 2%, 0.1%, -17
CC(C)CN(CC(C)C)S(=O)(=O)N1CCC(C(=O)NCc2cccs2)CC1
 : -4%, 21%, 4.0%, -2
CCN(CC)CCNC(=O)c1ccc(NC(=O)COc2ccccc2F)cc1
 : -7%, 11%, 1.0%, -3
O=C(Nc1ccc(-c2noc(CCc3ccccc3)n2)cc1)c1ccco1
 : -4%, -12%, -1.1%, -6
S=C(Nc1nc2c(s1)CCCC2)NC1CC1
 : 6%, -2%, -0.9%, ·
CC(C)CC(=O)NC(=S)N(Cc1ccccc1)Cc1ccccc1
 : -8%, 18%, 0.1%, 4
COC(=O)c1ccc(Cl)c(NC(=O)NC2CCCCC2)c1
 : -10%, -1%, -2.0%, 9

Results in Rango release inh, Rango complex inh and GLA inh pH 4.5, for some of the entries so far:
SMILES	Rango release inh	Rango complex inh	GLA inh pH 4.5
O=C(Nc1ncc2c(n1)CC(c1ccc(Cl)cc1)CC2=O)c1ccco1 (stereo unspecified)	8%	1.1%	·
CC1=NC(C)(C)Cc2ccccc21	-17%	0.7%	-7
CC1CCCN(c2nc3ccccc3nc2C(C#N)S(=O)(=O)c2ccccc2)C1 (stereo unspecified)	?	?	-13
CC(C)OC(=O)CN1CCN(C2c3ccccc3-c3ccccc32)CC1	0%	0.5%	1
O=C1C(c2ccc(F)cc2)N(Cc2ccc3c(c2)OCO3)C(=O)CN1C1CCCCCC1 (stereo unspecified)	8%	-0.4%	-5
